# Screening results deposited in PubChem by National Center for Advancing Translational Sciences (NCATS).
# ClpP mod: qHTS Assay for Activators of ClpP; ATP-dependent Clp protease proteolytic subunit (Bacillus subtilis (strain 168)), P80244; Potency, µM (doses to about 57.5 µM), for inactives: top-dose activity change, negative = active; AID 651965, 2013; hit rate 1.9% among 340,000; purified B. subtilis ClpP, FRET peptide cleavage, 20 min; active = well fitted falling curve with a large enough effect; inconclusive = small, poorly fitted or top-dose-only effect; inactive = no such curve, though single readings can be large or run the other way; further: the source files actives as falling curves though it sought activators and does not explain the sign; nearly all actives have a fitted effect of over 65% in size; many hits overshoot -100%
# Target sequence (P80244 whole entry, looked up): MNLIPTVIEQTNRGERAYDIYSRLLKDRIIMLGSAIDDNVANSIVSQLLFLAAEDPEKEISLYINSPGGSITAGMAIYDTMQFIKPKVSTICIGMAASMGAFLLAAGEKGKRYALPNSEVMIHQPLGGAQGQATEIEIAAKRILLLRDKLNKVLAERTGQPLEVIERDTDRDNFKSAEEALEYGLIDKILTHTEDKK
#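 Purified B. subtilis ClpP, 10 microg/mL final in Tris/HCl pH8 with KCl, BSA, glycerol and Tween-20, cleaved an Abz/nitrotyrosine-quenched decapeptide. Fluorescence (ex 320, em 430) was read at 0 and 20 min at room temperature. Delta was normalized to 5.8 microM ADEP and DMSO/no-enzyme controls.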
# Numbers without * were called inactive; ? = inconclusive. Potency means the concentration at half of the fitted maximal effect. The list is partial; count on the stated rates, not on these rows.
SMILES,ClpP mod
COc1ccc(NS(=O)(=O)c2ccc3c(c2)CC(C)N3C(C)=O)c(OC)c1 (stereo unspecified),-1.4%
Cc1ccc(C)c(NC(=O)CN2C(=O)CCc3ccccc32)c1,-0.9%
O=C(NCCc1ccc(Cl)cc1)c1ccc2nc(Cc3ccccc3)oc2c1,1.9%
Cc1nc2nc(NCc3ccccc3Cl)[nH]n2c(=O)c1Cc1ccccc1,-8.4%
COc1ccc(NC(=O)c2nnn(Cc3ccc(Br)cc3F)c2N)c(OC)c1,?
O=C(CCCCn1c(=O)c2ccccc2n(Cc2cccc(F)c2)c1=O)NCCc1ccccc1,-1.2%
CCOc1ccc(C(=O)Nc2onc3c2CCCC3)cc1,-0.7%
CCC(C(=O)NCc1ccccc1Cl)n1c(=O)c2cccn2c2ccccc21 (stereo unspecified),-6.3%
Cc1cccc(-c2nc3c4ccccc4nc(NCc4ccc(F)cc4)n3n2)c1,-1.6%
COc1ccc(CCn2c3c(c(=O)[nH]c2=S)CN(C)CN3)cc1OC,-3.6%
COc1ccc(Cl)cc1NC(=O)Cn1c(=O)n(Cc2ccco2)c(=O)c2cccnc21,-19.1%
COC(=O)c1ccc(NC(=O)CC2C(=O)N(c3cccc(C)c3)C(=O)N2Cc2ccco2)cc1 (stereo unspecified),-0.2%
CC12CN3CC(C)(CN(C1)C3c1ccc(OCc3ccccc3)cc1)C2=O (stereo unspecified),1.5%
COc1ccc(NC(=O)c2oc3ccccc3c2NC(=O)Cc2cccs2)c(OC)c1,3.6%
Cc1ccc(NC(=O)c2c(C)nc3sc(C(=O)Nc4ccc(F)cc4)c(N)c3c2-c2ccc(C)o2)c(C)c1,1.2%
CC(C)CN1CCc2nc(Nc3ccc(F)cc3F)ncc2C1,-1.2%
O=S(=O)(Nc1ccc(-c2ccc(N3CCCC3)nn2)cc1)c1ccccc1Cl,-9.8%
CCCCOC(=O)c1ccc(NC(=O)c2cc(-c3cccs3)on2)cc1,-18.5%
Cc1ccc(Cl)cc1NC(=O)C(C)n1nnc2sc3c(c2c1=O)CCCC3 (stereo unspecified),0.5%
CCc1ccc(-n2c(=O)c3cccnc3n2CC(=O)NCc2ccc(C)cc2)cc1,3.9%
O=C(Nc1nnc2n1CCS2)c1ccccc1C(F)(F)F,-1.8%
Cc1cccc(-c2nc3nc(C)cc(N4CCN(c5ccccc5)CC4)n3n2)c1,-29.4%
O=C(CC(c1cccs1)N1Cc2ccccc2C1=O)Nc1ccccc1 (stereo unspecified),-1.7%
CCOc1ccc(Br)cc1S(=O)(=O)Nc1cccc(-c2ccc(OC)nn2)c1,-1.2%
C=Cc1ccc(Cn2ccn(-c3ccc(F)c(F)c3)c(=O)c2=O)cc1,4.1%
CC(=O)c1ccc(NC(=O)CN(C)S(=O)(=O)c2cc3c(cc2Cl)NC(=O)CO3)cc1,1.6%
COc1cccc(CCNC(=O)c2c(O)nc3ccccn3c2=O)c1,-20.6%
CCCCn1c(=O)c2oc3ccccc3c2n(CC(=O)Nc2cc(C)ccc2C)c1=O,-0.6%
CC(C)Oc1ccc(CNC(=O)CCCn2c(=O)c3cccn3c3cccnc32)cc1,4.0%
O=C(Cn1nnc(-c2ccc(C(F)(F)F)cc2)n1)NCCc1ccccc1,0.9%
COc1ccccc1NC(=O)c1sc2nc(C)c(C(=O)Nc3ccc(C)cc3C)c(-c3ccc(Br)cc3)c2c1N,0.2%
Cc1ccc(N(CC(=O)Nc2ccc(C)c(Cl)c2)S(=O)(=O)c2cccs2)cc1,0.6%
CCSC1=NC2(CCN(C(=O)NC3CCCCC3)CC2)N=C1c1ccc(OC)cc1,-1.7%
Cc1ccc(C2C=C(c3ccc(Cl)cc3)Nc3nc(NC(=O)c4ccco4)nn32)cc1 (stereo unspecified),3.9%
CCn1c2ccccc2c2nnc(SC3CCOC3=O)nc21 (stereo unspecified),0.1%
COc1ccc(NC(=O)CCCSc2nc(-c3ccco3)cc(C(F)(F)F)n2)cc1,54.9%
COc1ccccc1CNC(=O)C1CCN(c2nnc(C)c3c(C)n(-c4ccccc4)nc23)CC1,4.3%
CC(C)Cn1c(=O)c2sccc2n2c(CCCC(=O)NCCc3ccc(Cl)cc3)nnc12,?
CCCCNc1nc2c(S(=O)(=O)c3ccc(Cl)cc3)nnn2c2ccsc12,2.5%
Cc1ccc2nc(-c3ccc(C)s3)c(Nc3ccc4c(c3)OCCO4)n2c1,?
CCOc1ccc(Nc2nc(C)c(NC(=O)c3cccc(F)c3)c(Nc3ccc(OCC)cc3)n2)cc1,0.0%
Cc1ccccc1C(=O)N1c2ncnn2C2(CCCCC2)[C@@H]2CCCC[C@@H]21,-4.1%
O=C(CCS(=O)(=O)c1ccc(Br)cc1)Nc1ccc(Cl)c(C(F)(F)F)c1,-1.9%
Cc1cc(C)cc(NC(=O)CSc2nc(=O)n(CCN3CCOCC3)c3c2CCC3)c1,-7.2%
COc1ccc(OC)c(N(C)S(=O)(=O)c2ccc3c(c2)NC(=O)CC(=O)N3)c1,0.5%
O=C(/C=C/c1ccccc1Cl)N1CCC(c2nc3ccccc3o2)CC1,-2.3%
CCOc1ccc(NC(=O)c2cn3c4c(ccc(Cl)c4c2=O)OC(C)C3)cc1 (stereo unspecified),-7.7%
CCOc1ccc(S(=O)(=O)N(CC(=O)NCCSc2ccc(C)cc2)c2ccccc2)cc1,-0.4%

# An excerpt of these results, as labelled records:
SMILES: CC(C)Cn1c(=O)c2sccc2n2c(CCCC(=O)NCCc3ccc(Cl)cc3)nnc12
- ClpP mod = ?

SMILES: CCCCNc1nc2c(S(=O)(=O)c3ccc(Cl)cc3)nnn2c2ccsc12
- ClpP mod = 2.5%

SMILES: Cc1ccc2nc(-c3ccc(C)s3)c(Nc3ccc4c(c3)OCCO4)n2c1
- ClpP mod = ?

SMILES: CCOc1ccc(Nc2nc(C)c(NC(=O)c3cccc(F)c3)c(Nc3ccc(OCC)cc3)n2)cc1
- ClpP mod = 0.0%

# Continuation.
SMILES,ClpP mod
CCC(Sc1nc2nccnc2c(=O)n1Cc1ccc(F)cc1)C(=O)NC1CCCCC1 (stereo unspecified),-0.2%
CCCc1ccc(S(=O)(=O)N2CCC(Oc3ccc(-n4cnnn4)cc3)CC2)cc1,0.5%
N#CC1=C(N)N(c2cccc(Cl)c2)C2=C(C(=O)CCC2)C1c1cc(CN2CCOCC2)cs1 (stereo unspecified),1.2%
Cc1ccc2c(=O)cc(C(=O)Nc3ccc(S(=O)(=O)Nc4ncccn4)cc3)oc2c1C,-0.8%
COc1ccccc1N1CCN(CCCNC(=O)c2nnc(Cc3c(F)cccc3Cl)o2)CC1,-1.7%
Cc1ccc2c(c1)c1c(c(=O)n(-c3cccc(Cl)c3)c(=O)n1CC(N)=O)n2C,4.0%
Cc1ccc(CNC(=O)CS(=O)(=O)c2cccc3nsnc23)cc1,-3.0%
CCOc1ccc(NC(=O)CN2C(C(=O)OC)=C(c3ccccc3)c3cc(Cl)ccc3S2(=O)=O)cc1,-3.2%
CCOc1ccc(CCNC(=O)c2ccc3c(c2)N(Cc2cccc(Cl)c2)C(=O)c2ccccc2S3(=O)=O)cc1OCC,2.3%
CCOc1ccccc1C(=O)Nc1ccc2c(c1)N(C)C(=O)c1ccccc1S2,-3.1%
COc1cccc(-c2nc(SCC(=O)Nc3ccc4c(c3)OCCO4)c(-c3ccc(C)cc3)[nH]2)c1,28.2µM*
O=C(C[n+]1ccccc1Br)c1ccc(-c2ccccc2)cc1,-24.8%
COCCNC(=O)c1c(NC(=O)c2cc(=O)c3cc(C)cc(C)c3o2)sc2c1CCCC2,-2.3%
CCCCN(CC)CCNC(=O)c1c(C)oc2ncnc(N3CCOCC3)c12,0.2%
CC(=O)N1CCCc2cc(S(=O)(=O)N3CCN(c4cccc(C(F)(F)F)c4)CC3)ccc21,0.7%
Cc1cccc(NC(=O)CSc2nc(-c3ccco3)cc(C(F)(F)F)n2)c1C,-2.7%
COc1ccc(NC(=O)CSc2nc3nc(C)cc(C)n3n2)cc1OC,1.3%
CCOc1ccc(CCNC(=O)c2nnc(Cc3cc(OC)c(OC)c(OC)c3)o2)cc1OCC,-2.2%
COc1cc(N2C(=O)CSC23C(=O)N(Cc2ccc(C)cc2)c2ccccc23)cc(OC)c1OC (stereo unspecified),-14.6%
CC(C)c1ccc(NC(=O)CN2C(=O)COc3ccc(S(=O)(=O)N4CCCCCC4)cc32)cc1,4.1%
Cc1oc2ncn(C)c(=O)c2c1C(=O)NCCCN(Cc1ccccc1)C(C)C,-0.2%
CSC1=NC2(CCN(C(=O)NC3CCCCC3)CC2)N=C1c1ccc(C)cc1,1.2%
Cc1cc(C)nc(NS(=O)(=O)c2ccc(NC(=O)c3cc(=O)c4ccc(C)c(C)c4o3)cc2)n1,1.9%
CN(C)c1ccc(CNS(=O)(=O)c2ccc(-c3cc(C(F)(F)F)on3)s2)cc1,0.2%
O=c1[nH]c2ccc(NCc3ccc(-c4cccc(Cl)c4)o3)cc2[nH]1,5.9%
Cc1c(Cl)cccc1NC(=O)c1ccc2nc(C(C)C)oc2c1,5.1%
COc1ccc(NC(=O)C2CCN(c3nc(-c4ccc(OC)c(OC)c4)no3)CC2)cc1Cl,-1.2%
Cc1nc(N2CCCC2)c2c(C(=O)N3CCN(c4cc(Cl)ccc4C)CC3)c(C)oc2n1,-1.9%
Cc1ccc(Cn2ccnc2SCC(=O)NCc2ccccc2Cl)cc1,-1.5%
Cc1c(CCC(=O)N2CCCCC2)c(=O)oc2cc3occ(C(C)(C)C)c3cc12,-8.6%
O=C(NC1CC1)c1ccc(Cn2c(SCc3ccccc3F)nc3cccnc32)cc1,4.8%
CCOC(=O)N1CCN(c2ncc3c(n2)CC(c2ccc(Cl)cc2)CC3=O)CC1 (stereo unspecified),-9.7%
COc1cccc(NC(=O)CSc2nccn2Cc2ccc3c(c2)OCO3)c1,0.0%
CCOC(=O)c1c(C)sc(-c2c(-c3ccc4c(c3)OCCO4)[nH]c3c2c(=O)[nH]c(=O)n3C)c1O,-0.7%
Cc1ccc(NS(=O)(=O)c2c(C)nc3sc(C)cn3c2=O)c(C)c1,-6.0%
CN(C(=O)CSc1nnc(-c2ccc([N+](=O)[O-])cc2)o1)c1ccccc1,-1.4%
COC(=O)c1ccc(NC(=O)c2cc3cc4ccc(OC)c(Cl)c4nc3s2)cc1,4.1%
CCOc1ccc(OCC)c(NS(=O)(=O)c2cc(-c3cc(C)no3)ccc2C)c1,1.8%
CC(C)CS(=O)(=O)c1oc(-c2ccc(F)cc2)nc1S(=O)(=O)c1ccccc1,-8.8%
Cc1ccccc1NC(=O)c1cc2sccc2n1Cc1ccc(F)cc1,149.9%
COc1ccccc1N1CCN(C(=O)Cc2c(C(=O)O)c(C)cn2C)CC1,-1.2%
COc1ccc2[nH]c3c(c2c1)CCN(C(=O)CCC1CCCC1)C3c1ccc(F)cc1 (stereo unspecified),-28.6%
CCN1CCc2nc3sc(C(=O)Nc4cccc(Cl)c4C)c(N)c3cc2C1,-16.6%
CCc1ccccc1NC(=O)CSc1ncc2c(n1)-c1cc(Cl)ccc1N(Cc1ccccc1)S2(=O)=O,-26.0%
CCN(c1ccccc1)c1nnc(NC(=O)Nc2ccccc2F)s1,-0.7%
O=c1c2cccnc2n(Cc2ccc(Cl)cc2)c(=O)n1Cc1ccc(F)cc1,-9.7%
COC(=O)c1nnn(-c2ccc(Cl)cc2)c1C(=O)OC,0.7%
COC(=O)c1ccc(Cn2c(SCc3cccc(C)c3)nc3ccncc32)cc1,-1.9%

# As entered above:
# ClpP mod, Cc1nc2nc(NCc3ccccc3Cl)[nH]n2c(=O)c1Cc1ccccc1 is entered as -8.4%
# ClpP mod, CCSC1=NC2(CCN(C(=O)NC3CCCCC3)CC2)N=C1c1ccc(OC)cc1 is entered as -1.7%

# Some of the entries so far, with each value named.
COC(=O)c1nnn(-c2ccc(Cl)cc2)c1C(=O)OC
- ClpP mod = 0.7%

COC(=O)c1ccc(Cn2c(SCc3cccc(C)c3)nc3ccncc32)cc1
- ClpP mod = -1.9%

# Next compounds.
SMILES,ClpP mod
Cc1ccc(C)c(CN2CCC(CNC(=O)C(CC(C)C)N3Cc4ccccc4C3=O)CC2)c1 (stereo unspecified),1.4%
CCOC(=O)CC(NC(=O)c1cc2cc(OC)ccc2oc1=O)c1ccc(OC)cc1 (stereo unspecified),-18.5%
CCOC(=O)c1scc(-c2ccccc2)c1S(=O)(=O)Nc1ccccc1F,-1.5%
Cc1cccc(C(=O)Nc2c(-c3ccccc3)nc3cc(C)ccn23)c1,-2.0%
COc1ccc(CNC(=O)Cn2c(=O)n3nc(-c4ccc(OC)cc4)nc3c3ccccc32)cc1,-6.4%
CC(CCc1ccccc1)NC(=O)CSc1n[nH]c(-c2ccccc2)n1 (stereo unspecified),0.5%
Cc1ccc(NC(=O)c2c(C)oc3ccc(O)c(CN4CCCCC4)c23)cc1,-2.6%
Cc1cc2ccccc2c[n+]1CC(=O)c1ccc(F)cc1,4.2%
COc1cc2c(-c3ccccc3Cl)nc3c(c(C)nn3-c3ccccc3)c2cc1OC,4.1%
COc1ccc(N(CC(=O)Nc2cccc(Cl)c2C)S(=O)(=O)c2c(C)nn(C)c2C)cc1,0.7%
CCOc1ccc(N(CC)S(=O)(=O)N2CCCC(C(=O)Nc3cc(Cl)ccc3C)C2)cc1 (stereo unspecified),-0.4%
COc1ccccc1CNc1ccc(-c2nc(-c3ccncc3)no2)cc1[N+](=O)[O-],-1.2%
Cc1ccnc(NS(=O)(=O)c2ccc(NC(=O)C(C)(C)Oc3ccc(Cl)cc3)cc2)n1,-2.1%
COc1ccc(-c2cc(C(=O)Nc3c(C(=O)c4ccc(Cl)cc4)oc4ccccc34)no2)cc1,-3.8%
CC(C)(C)c1ccc(C(=O)N2CCC(c3noc(-c4ccc(S(=O)(=O)N5CCCC5)cc4)n3)CC2)cc1,0.2%
